Compound activity as filed in PubChem.
Ecoli rRNA inh – inhibitors of bacterial rRNA selective over humanized ribosomes | 350,000 tested, 1.6% active | GFP signal change (wild-type ribosome), % (concentration not given with the values) | AID 720706 | E. coli WT GFP vs humanized-ribosome RFP mutants, fluorescence, 24 h; hits give low values; DMSO median 0, no signal -100;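 active means significant combined selectivity score with lowered wild-type GFP, culture density cut under 30%, mutant RFP and density less affected; inactive means any of these conditions unmet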; further: one replicate is shown; some compounds called inactive have numbers as strong as hits
ALR H2O2 inh – blocks human ALR sulfhydryl oxidase activity; purified ALR, DTT oxidation, H2O2 HRP-luminol luminescence; inhibition, % (concentration not given with the values); 290,000 tested, 3.8% active;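 active means mean and each replicate at 75% or more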;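 further: stock transfer was 7.5 nL into about 7.5 µL; 0% = neutral wells and 100% = wells with inactivated enzyme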
Target sequence (P55789 whole entry, looked up): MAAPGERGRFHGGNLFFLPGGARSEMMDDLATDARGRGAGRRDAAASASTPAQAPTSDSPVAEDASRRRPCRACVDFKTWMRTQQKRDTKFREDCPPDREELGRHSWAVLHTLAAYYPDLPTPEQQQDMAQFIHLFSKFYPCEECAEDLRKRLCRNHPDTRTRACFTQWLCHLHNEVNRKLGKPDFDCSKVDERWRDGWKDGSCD
UCH37 inh – inhibitors of human deubiquitinating enzyme UCH37; purified proteasome/UCH37, Ub-AMC cleavage fluorescence; Q9Y5K5; 330,000 tested, 0.33% active; inhibition, % (no concentration beside the values); AID 588478;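 active means mean of two replicates above 20%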;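 further: 0% = compound-free wells with enzyme and 100% = wells lacking proteasome; stock transfer was 100 nL into about 20 µL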
Target sequence (Q9Y5K5 whole entry, looked up): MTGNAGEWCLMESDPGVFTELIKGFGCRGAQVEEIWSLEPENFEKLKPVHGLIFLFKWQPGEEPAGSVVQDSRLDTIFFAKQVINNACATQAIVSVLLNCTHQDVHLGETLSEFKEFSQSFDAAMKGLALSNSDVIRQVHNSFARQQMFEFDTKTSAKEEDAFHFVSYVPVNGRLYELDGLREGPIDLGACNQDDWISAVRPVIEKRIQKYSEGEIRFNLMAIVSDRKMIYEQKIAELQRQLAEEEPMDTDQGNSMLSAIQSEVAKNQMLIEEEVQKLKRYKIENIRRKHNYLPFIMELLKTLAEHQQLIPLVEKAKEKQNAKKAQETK
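System: Proteasome-associated human UCH37 deubiquitinase; Input: 0.15 nM proteasome in added enzyme buffer; Also added: Ub-AMC substrate from 1 µM stock; Incubation: 30 min compound-proteasome preincubation then 25 min substrate reaction, room temperature; Detection: fluorescence, ex 355 nm, em 460 nm; Read-out: % inhibition of Ub-AMC cleavage fluorescence; Benchmarks: no-proteasome and no-compound wells.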
E coli growth – E. coli growth inhibition | AID 1053175 | OD600 absorbance (test concentration not listed) | Escherichia coli growth, OD600, 23 h; hits give low values | 330,000 tested, 0.21% active;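 active means OD600 absorbance below the run mean of sample wells minus 3.6 SD, in any replicate, cut at about 0.56 in these data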;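 further: stock transfer was 300 nL into about 60 µL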
FGF22 binding – binders of recombinant human FGF22 by thermal shift | SYPRO orange fluorescence; percent of sucrose octasulfate shift, DMSO zero | calls only at 9.99 µM | 340,000 tested, 1.5% active | Q9HCT0 | AID 651658;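 active means melting point raised past a set limit in the mean and every replicate; three in four hits are not shown here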
HNF4A DNA FP – change in binding of human HNF4 alpha to DNA; HNF4a-FITC DNA binding, fluorescence polarization, 1 h; activity change, % at 10 µM; 360,000 tested, 0.3% active; P41235; in the data active means activity change above about 30%, passing the limit was not always enough;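 further: controls were the assay level and a saturating level of protein; the project sought stronger binding though the title names inhibitors; some compounds called inactive have numbers as strong as hits; positive values seem to mean higher polarization but the record does not say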
B2AR ag – activates human beta-2 adrenergic receptor causing internalization | Am2.2-beta2AR cells, FAP receptor internalization, flow cytometry; reference of the scale not given here | response, % (test concentration not listed) | 340,000 tested, 0.43% active | P07550;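 active means response above a set limit, near 3 SD of response in nonfluorescent compounds, cut at about 42% in these data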;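 further: stock transfer was 100 nL into about 11 µL; a reference agonist was the positive control; negative values mostly stem from fluorescent compounds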
Target sequence (P07550 whole entry, looked up): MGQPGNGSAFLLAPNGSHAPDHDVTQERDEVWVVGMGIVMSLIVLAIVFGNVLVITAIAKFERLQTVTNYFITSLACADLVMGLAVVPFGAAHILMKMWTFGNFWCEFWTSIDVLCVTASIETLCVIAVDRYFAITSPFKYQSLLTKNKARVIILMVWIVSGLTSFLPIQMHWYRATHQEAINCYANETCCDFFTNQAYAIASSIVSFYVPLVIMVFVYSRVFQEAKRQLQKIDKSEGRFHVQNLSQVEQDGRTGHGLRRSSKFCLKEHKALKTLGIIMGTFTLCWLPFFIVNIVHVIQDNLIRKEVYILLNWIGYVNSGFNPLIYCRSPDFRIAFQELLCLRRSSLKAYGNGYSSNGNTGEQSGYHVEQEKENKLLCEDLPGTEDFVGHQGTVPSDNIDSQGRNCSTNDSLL
Ecoli rRNA inh OD600 – recorded beside Ecoli rRNA inh, whose call it bears; OD600 change, %; measured here: OD600 growth;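 optical density of the mix in the first replicate; 0 = DMSO median and -100 = no signal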
Ecoli rRNA inh RFP – also measured in Ecoli rRNA inh; calls as there; RFP signal change, %; measured here: RFP humanized mutant strains;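 first replicate; 0 = DMSO median and -100 = no signal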
* = called active by the depositor; i = inactive; x = not tested or not shown.

SMILES | Ecoli rRNA inh | Ecoli rRNA inh OD600 | Ecoli rRNA inh RFP | ALR H2O2 inh | UCH37 inh | E coli growth | FGF22 binding | HNF4A DNA FP | B2AR ag
O=C(c1sc2cc([N+](=O)[O-])ccc2c1Cl)N1CCOCC1 | 1 | 1 | 1.5 | -30 | 4.1 | 0.7 | i | -2.0 | -5
O=S(=O)(NC(=NC1CCCC1)C(F)(F)F)c1ccccc1 | x | x | x | 2 | 2.4 | 0.75 | x | -2.1 | -2
CC(C)C1C(=O)NC(=S)N1S(=O)(=O)c1ccc(C(C)(C)C)cc1 (stereo not drawn) | x | x | x | -6 | 1.7 | 0.67 | x | 1.9 | 3
Cc1sc2nc(SCC(=O)N3CCCCC3)[nH]c(=O)c2c1C | x | x | x | -1 | 3.0 | 0.71 | x | 2.3 | -4
COc1ccccc1/C=C1/C(=O)N(c2ccc([N+](=O)[O-])cc2)N=C1C | 1 | -1 | -3.4 | -22 | 5.4 | 0.68 | i | -3.8 | 3
O=C(Cc1ccc(NC(=O)C2CCCN(C(=O)CCc3ccccc3)C2)cc1)Nc1cccc(C(=O)N2CCCC2)c1 (stereo not drawn) | -15* | -11* | -0.9* | x | 0.0 | 0.71 | i | 2.1 | -5
O=C(COc1ccc(F)cc1)N1CCCCCCC1 | 8 | 6 | 0.3 | -32 | 4.2 | 0.71 | i | 4.3 | -5
COc1cc(C(O)CO)ccc1OS(=O)(=O)O (stereo not drawn) | x | x | x | -6 | 4.7 | 0.66 | i | -0.4 | 3
CCOc1ccc(OCC(O)CNC2CCN(Cc3ccccc3)CC2)cc1 (stereo not drawn) | x | x | x | 0 | 2.4 | 0.68 | x | 1.0 | 10
COc1cccc(/C=N/n2c(-c3cc(C)[nH]n3)n[nH]c2=S)c1OC | 14 | 10 | -0.1 | 96* | x | x | i | -23 | 5
CCC(C)(C)n1nnnc1C(c1ccc(OC)c(OC)c1)N1CCN(c2cccc(OC)c2)CC1 (stereo not drawn) | x | x | x | 43 | 2.0 | 0.76 | x | 3.0 | 1
CCOC(=O)C(Cc1c[nH]c2ccccc12)NC(=O)CNC(C)=O (stereo not drawn) | x | x | x | -11 | -1.8 | 0.73 | x | 3.0 | -5
CC1(C)CC(=O)C=C(c2ccc(-c3ccccc3)cc2)C1=O | -14 | -11 | 0.7 | x | x | x | i | 0.2 | x
CN(C)CCCN(C(=O)c1cc2cc([N+](=O)[O-])ccc2s1)c1nc2cc3c(cc2s1)OCCO3 | 0 | 1 | -0.4 | -4 | x | x | i | 3.0 | 35
Cc1ccc(S(=O)(=O)N2CCN(C(=O)COC(=O)CNC(=O)c3ccccc3F)CC2)c(C)c1 | 2 | 2 | -3.4 | x | 5.4 | 0.71 | i | 0.3 | 2
COC(=O)c1cccc(C(=O)N2CCC(CO)(Cc3ccccc3Cl)CC2)c1 | -1 | -3 | 0.9 | -8 | -1.4 | 0.72 | i | 3.2 | -3
Cc1cc(C(=O)OCC(=O)N2C(C)CCCC2C)c2ccccc2n1 (stereo not drawn) | -13 | -8 | -0.7 | -5 | -1.9 | 0.65 | i | 2.7 | 2
COc1ccc(C2=C(C=Nc3c(C)n(C)n(-c4ccccc4)c3=O)C(c3ccccc3C)c3ccccc3O2)cc1OC (stereo not drawn) | x | x | x | -2 | 10 | 0.76 | x | 0.7 | 11
CC(C)=C(NC(=O)c1ccccc1)C(=O)NCc1ccccc1 | 19 | 13 | 0.4 | x | -0.4 | 0.65 | i | 2.4 | 3
O=S(=O)(NC1CC1)c1ccc(Cl)cc1 | 15 | 14 | 0.1 | x | 4.7 | 0.72 | i | 3.6 | -1
CC(C)CC(NC(=O)C(NC(=O)OC(C)(C)C)C(C)C)C(=O)N1CCCC1C(N)=O (stereo not drawn) | x | x | x | 0 | -1.6 | 0.7 | x | -1.6 | 1
COc1ccc(NC(=O)CCCC(=O)NCCc2ccc(OC)c(OC)c2)cc1 | 0 | 1 | -2.3 | -19 | 3.9 | 0.63 | i | 4.5 | 3
COc1ccc(C(=O)Nc2ccc3nc(C)sc3c2)cc1S(=O)(=O)N1CCOCC1 | 2 | 27 | 5.0 | x | x | x | i | 2.0 | x
COCCCn1c(=O)c2sccc2n2c(CCCC(=O)NCc3ccc(F)cc3)nnc12 | 1 | 11 | -0.7 | -1 | 1.3 | 0.69 | i | -0.4 | -16
COc1ccc(OC)c(/C=C/C(=O)N(C)CC(=O)Nc2ccc(C)cc2)c1 | x | x | x | -2 | -317 | 0.68 | x | 2.7 | -6

Molecules shown so far with a nitro group on carbon (three):
SMILES | Ecoli rRNA inh | Ecoli rRNA inh OD600 | Ecoli rRNA inh RFP | ALR H2O2 inh | UCH37 inh | E coli growth | FGF22 binding | HNF4A DNA FP | B2AR ag
O=C(c1sc2cc([N+](=O)[O-])ccc2c1Cl)N1CCOCC1 | 1 | 1 | 1.5 | -30 | 4.1 | 0.7 | i | -2.0 | -5
COc1ccccc1/C=C1/C(=O)N(c2ccc([N+](=O)[O-])cc2)N=C1C | 1 | -1 | -3.4 | -22 | 5.4 | 0.68 | i | -3.8 | 3
CN(C)CCCN(C(=O)c1cc2cc([N+](=O)[O-])ccc2s1)c1nc2cc3c(cc2s1)OCCO3 | 0 | 1 | -0.4 | -4 | x | x | i | 3.0 | 35

(further entries)
SMILES | Ecoli rRNA inh | Ecoli rRNA inh OD600 | Ecoli rRNA inh RFP | ALR H2O2 inh | UCH37 inh | E coli growth | FGF22 binding | HNF4A DNA FP | B2AR ag
COc1ccc(/C=C(\C#N)c2c[nH]c3ccccc23)cc1 | -58 | -82 | -15 | 16 | -234 | 0.6 | i | 1.1 | 23
O=C(NCc1cc([N+](=O)[O-])ccc1O)c1cccnc1Sc1ccc(Cl)cc1 | -26 | -35 | 0.9 | 0 | 1.7 | 0.69 | i | 3.1 | 5
COc1ccc(C)cc1COC(=O)c1[nH]c(C)c(C(C)=O)c1C | 9 | 9 | 3.4 | 0 | 3.1 | 0.7 | i | 6.9 | 4
Cc1nnc(SCC(=O)Nc2sc3c(c2C#N)CCCC3)[nH]c1=O | x | x | x | 98* | 3.2 | 0.72 | x | -2.1 | 0
CCOC(=O)c1cc(NC(=O)C2C3CCC(O3)C2C(=O)O)cc(C(=O)OCC)c1 (stereo not drawn) | -6 | 9 | -1.1 | x | 2.8 | 0.67 | i | 2.9 | -2
O=C(COc1ccccc1O)NNc1ccccc1 | -4 | 4 | -0.6 | 43 | -1.0 | 0.67 | i | -1.4 | -2
COc1ccccc1NC(=O)Nc1ccc2c(c1)CCC2 | -3 | 0 | 0.8 | 4 | 4.1 | 0.67 | i | 1.9 | 0
COc1ccc(/C=C/C(=O)Oc2cccc(/C=N/NC(=O)COc3c(C)cccc3C)c2)cc1 | x | x | x | -5 | x | x | x | -1.2 | 12
COc1cccc(NC(=O)CN(C)C(=O)CN2C(=O)NC(C)(c3ccc4ccccc4c3)C2=O)c1 (stereo not drawn) | 0 | 2 | -0.3 | 8 | 1.8 | 0.71 | i | 2.6 | 1
CSCCC(NS(=O)(=O)c1ccccc1F)C(=O)NCC(C)(C)N1CCOCC1 (stereo not drawn) | 8 | 17 | -0.4 | -12 | -1.2 | 0.64 | i | 2.0 | 4
COc1ccccc1NS(=O)(=O)c1cccc(C(=O)NCC2(N(C)C)CCCCC2)c1 | 6 | 7 | 0.7 | -2 | 3.0 | 0.71 | i | 1.4 | -4
O=c1[nH]c(-c2cccnc2)nc2ccccc12 | x | x | x | 0 | 3.0 | 0.7 | x | 3.7 | -4
O=C(Nc1n[nH]c(C2CCCCC2)n1)C1CCCCC1 | 9 | 3 | 0.3 | -6 | 0.5 | 0.69 | i | -1.3 | 5
CC(C)CN(C(=O)C1CC1)c1c(N)n(Cc2ccccc2)c(=O)[nH]c1=O | 7 | 5 | -1.6 | -7 | 1.4 | 0.65 | i | 1.7 | 28
CC(=O)Nc1ccc(N2CCN(c3ccc(F)cc3)CC2)cc1 | 7 | 7 | -0.5 | x | 0.5 | 0.66 | i | 2.4 | 1
O=[N+]([O-])c1nn(-c2cccc(Cl)c2)n(O)c1=NCc1cccnc1 | 2 | 14 | -0.3 | -33 | 7.4 | 0.56 | i | -1.5 | 8
COc1cccc(N2CCN(C(=O)c3cccnc3)CC2)c1 | 11 | 0 | -6.2 | 54 | 4.0 | 0.64 | i | 1.1 | 1
CCOC(=O)c1ccc(CNC(=O)Cn2nnc(-c3ccccc3F)n2)o1 | -3 | -9 | -0.7 | -3 | x | x | i | 4.8 | -2
COCCOc1cc(COC)nc(-c2cccc(C)c2)n1 | -8 | -9 | -4.8 | -12 | 11 | 0.61 | i | 4.0 | -1
COc1cc2nncc(SC)c2cc1OC | 2 | 2 | 1.3 | x | 5.5 | 0.71 | i | -0.2 | 8
O=C(Cn1cc2c(n1)CCCC2)N1CCOCC1 | 6 | 4 | -1.5 | -13 | 3.0 | 0.72 | i | 1.3 | -9
CN(CCc1cn[nH]c1)Cc1nc(C(c2ccccc2)c2ccccc2)no1 | -9 | -10 | 4.4 | -5 | 0.3 | 0.71 | i | -0.3 | 0
Cc1ccccc1CNC(=O)c1ccccc1 | x | x | x | -2 | -0.8 | 0.66 | x | -3.1 | -2
CN(C)c1ccnc(Nc2ccc(O)cc2)c1C#N | 15 | 14 | 1.4 | -16 | 5.6 | 0.65 | i | 2.5 | 6
COC(=O)c1ccc(COc2ccccc2[N+](=O)[O-])o1 | x | x | x | -16 | 3.8 | 0.66 | x | 4.0 | 6

Next section (3 carried over from the part before).
SMILES | Ecoli rRNA inh | Ecoli rRNA inh OD600 | Ecoli rRNA inh RFP | ALR H2O2 inh | UCH37 inh | E coli growth | FGF22 binding | HNF4A DNA FP | B2AR ag
Cc1ccccc1CNC(=O)c1ccccc1 | x | x | x | -2 | -0.8 | 0.66 | x | -3.1 | -2
CN(C)c1ccnc(Nc2ccc(O)cc2)c1C#N | 15 | 14 | 1.4 | -16 | 5.6 | 0.65 | i | 2.5 | 6
COC(=O)c1ccc(COc2ccccc2[N+](=O)[O-])o1 | x | x | x | -16 | 3.8 | 0.66 | x | 4.0 | 6
CCOC(=O)C1=C(Nc2ccccc2)OCC1=O | x | x | x | -3 | 1.0 | 0.7 | x | 0.3 | 2
CN(Cc1ccc(C(C)(C)C)cc1)C(=O)c1ccc2c(c1)OCO2 | -6 | -12 | -0.7 | x | 1.3 | 0.7 | x | -2.0 | 13
CN(CCOc1ccc(Cl)c(Cl)c1)Cc1ccccc1 | -30* | -15* | -2.9* | 0 | 2.8 | 0.66 | i | 1.9 | -10
CC(=O)c1ccc(C(=O)N2CCCC(C(=O)c3cc(F)ccc3F)C2)s1 (stereo not drawn) | -3 | -3 | -2.5 | -9 | 1.2 | 0.73 | i | -2.2 | -2
CCOC(=O)c1c(S(=O)(=O)NCC(=O)Nc2cc(C)ccc2OC)c(C)n(C)c1C | -4 | -11 | 0.2 | -4 | 0.0 | 0.65 | i | 0.3 | 12
O=C(C1CCN(S(=O)(=O)N2CCOCC2)CC1)N1CCN(Cc2ccccc2)CC1 | x | x | x | -5 | 2.0 | 0.71 | x | -3.4 | -4
O=C(c1ccc(Cl)cc1)N1CCC(O)(CSc2ccc(Cl)cc2)CC1 | x | x | x | -3 | 2.4 | 0.73 | x | 0.1 | 0
COc1ccccc1C(=O)O/N=C(\c1ccccc1)c1ccncc1 | -13 | 2 | -1.1 | -13 | x | x | i | 1.2 | -6

Some of the compounds tested (hit frequency here may not be typical).
